Source: PubChem BioAssay (National Center for Advancing Translational Sciences (NCATS))
2A Renilla: lowers the Renilla signal of an FMDV 2A StopGo reporter; hit rate 0.32% among 120,000; Potency, µM (highest dose often 57.5 µM), for inactives: at the top dose signal change, negative = less light; HEK cells with a luciferase reporter of 2A StopGo recoding; active means well fitted falling curve with a large enough effect; inconclusive means small, poorly fitted or top-dose-only effect; inactive means no such curve, though single readings can be large or run the other way; note: nearly all actives have a fitted effect of over 55% in size; overnight with compound
2A firefly: FMDV 2A StopGo reporter, firefly signal | HEK cells with a luciferase reporter of 2A StopGo recoding | Potency, µM (series often up to 57.5 µM), inactives show at the highest dose signal change, negative = less light | hit rate 0.23% among 120,000 | AID 1745856; active = well fitted falling curve with a large enough effect; inconclusive = small, poorly fitted or top-dose-only effect; inactive = no such curve, though single readings can be large or run the other way; note: nearly all actives have a fitted effect of over 60% in size; overnight with compound
The depositor's hits bear a star; u = inconclusive; & = joins results of further samples; [ ] = another dose, or the depositor's remark. % is set by controls: 0 for no effect and ±100 for the full control effect; potency is the fitted concentration of half-maximal effect. An excerpt. The share of hits here may be higher or lower than overall.

SMILES | 2A Renilla | 2A firefly
COc1ccc(CCNC(=O)Cc2c(C)c3ccc(OC)c(OC)c3oc2=O)cc1OC | -4.8% | 0.7%
CC(C)NC(=O)NC(=O)COc1ccccc1C#N | 9.9% | 170.7%[activator]
Cc1cc(C(=O)NCc2ccc(C)o2)c2cccc(-c3ccccc3)c2n1 | 32.8%[activator] | -0.3%
COC(=O)c1ccc2c(=O)n(CCCCCC(=O)N3CCN(c4ccc(Cl)cc4)CC3)c(=O)[nH]c2c1 | 29.0% | 61.7%[activator]
CCc1ccc(NC(=O)CSc2nnc(CNC(=O)c3c(F)cccc3Cl)o2)cc1 | -6.8% | 2.5%
Cc1c(CCC(=O)Nc2nc3ccccc3[nH]2)c(=O)oc2cc(O)ccc12 | 36.5%[activator] | 271.7%[activator]
CCc1cc(C(c2ccccc2Cl)N2CCN(C)CC2)c(NC(=O)c2ccco2)s1 (stereo unspecified) | 5.4% | u
CCCCn1cc(S(=O)(=O)c2ccc(Cl)cc2)c(=O)c2cc(F)c(N3CCCCC3)cc21 | 5.4% | 0.0%
CCOc1ccc(OCC(=O)Nc2nnc3n2CCS3)cc1 | 3.0% | 5.5%
Cc1ccc(C2Nc3ccc4ccccc4c3C3=C2C(=O)CC(C)(C)C3)o1 (stereo unspecified) | 85.0%[activator] | 72.6%[activator]
CCc1cccc(NC(=O)CSc2nc3ccsc3c(=O)n2CC)c1 | -10.8% | u
CC(=O)N1CCN(C(=O)c2cc3ccc(F)cc3nc2C)CC1 | -18.9% | -9.6%

Gathered by group: the compounds so far with a carbonyl joined to an NH by a bond outside any ring (8)
SMILES | 2A Renilla | 2A firefly
COc1ccc(CCNC(=O)Cc2c(C)c3ccc(OC)c(OC)c3oc2=O)cc1OC | -4.8% | 0.7%
CC(C)NC(=O)NC(=O)COc1ccccc1C#N | 9.9% | 170.7%[activator]
Cc1cc(C(=O)NCc2ccc(C)o2)c2cccc(-c3ccccc3)c2n1 | 32.8%[activator] | -0.3%
CCc1ccc(NC(=O)CSc2nnc(CNC(=O)c3c(F)cccc3Cl)o2)cc1 | -6.8% | 2.5%
Cc1c(CCC(=O)Nc2nc3ccccc3[nH]2)c(=O)oc2cc(O)ccc12 | 36.5%[activator] | 271.7%[activator]
CCc1cc(C(c2ccccc2Cl)N2CCN(C)CC2)c(NC(=O)c2ccco2)s1 (stereo unspecified) | 5.4% | u
CCOc1ccc(OCC(=O)Nc2nnc3n2CCS3)cc1 | 3.0% | 5.5%
CCc1cccc(NC(=O)CSc2nc3ccsc3c(=O)n2CC)c1 | -10.8% | u

Remaining list, next part:
SMILES | 2A Renilla | 2A firefly
O=C(CSc1ccc2ccccc2c1)c1ccc[nH]1 | 64.8%[activator] | 4.4%
COc1ccc(CCNC(=O)c2cc(=O)[nH]c3ccc(S(=O)(=O)N4CCCCC4C)cc23)cc1OC (stereo unspecified) | u | u
CCN(c1ccc(NC(=O)[C@H](Cc2ccccc2)NC(=O)c2cccs2)cc1)C(C)C | -7.8% | 62.4%[activator]
CC(O)c1ccc(-c2ccc(CNCc3cccs3)o2)cc1 (stereo unspecified) | 36.9%[activator] | 147.9%[activator]
CC(C)(C)c1ccc(-c2nc3cc(NC(=O)c4cccc(Br)c4)ccc3o2)cc1 | 2.8% | -0.5%
CNC(=O)C1CCN(C(=O)c2ccc3[nH]c(C)c(C)c3c2)CC1 | 28.3% | 0.0%
Cc1ccc2c(c1)c1c(c(=O)n(-c3cccc(Cl)c3)c(=O)n1CC(=O)NCCC1=CCCCC1)n2C | -17.9% | u
Cc1occc1-c1nnc(SCC(=O)c2c[nH]c(C(=O)N3CCCC3)c2)n1-c1ccccc1 | 89.8%[activator] | 45.1%[activator]
Cc1cc(OCc2nc(C#N)c(NCc3ccncc3)o2)ccc1Cl | 2.2% | 0.0%
Cc1csc2nc(CSc3ccccc3NC(=O)COc3ccccc3Cl)cc(=O)n12 | -7.1% | -11.2%
O=C(c1nn(Cc2ccccc2)c(=O)c2ccccc12)N1CCN(C(=O)C2CC2)CC1 | 48.5%[activator] | 40.9%[activator]
Cc1nonc1CN1CCN(C(C(=O)O)c2c[nH]c3ccc(Cl)cc23)CC1 (stereo unspecified) | 0.3% | 6.4%

(listing goes on)
SMILES | 2A Renilla | 2A firefly
O=C(Nc1ccc2nc(SCC(=O)N3CCCc4ccccc43)sc2c1)c1ccc(Cl)cc1 | -13.7% | 0.0%
COc1ccc(C)cc1CCNC(=O)CCc1c(C)nn(C)c1C | 15.2% | 102.2%[activator]
CCc1ccc(C(=O)CC2OC(=O)c3c2ccc(OC)c3OC)cc1 (stereo unspecified) | -6.9% | 21.9%
Cc1ccc(C(=O)OCC(=O)N(CCC#N)c2cccc(C(F)(F)F)c2)cc1[N+](=O)[O-] | 11.8% | 6.0%
CC(C)(C)c1ccc(C(CC(=O)O)NC(=O)c2ccc(F)cc2)cc1 (stereo unspecified) | 4.7% | 20.6%
Cc1ccc(C)c(OC(=O)c2ccccc2F)c1 | -8.2% | -12.0%
O=C(CC12CC3CC(CC(C3)C1)C2)Nc1ccccc1C(=O)Cc1ccccc1 | 32.3% | 26.9%
CCc1cccc(NC(=O)CN2C=NS(=O)(=O)c3ccccc32)c1 | 9.2% | -6.1%
COc1ccccc1OCC(=O)Nc1nnc2n1CCS2 | 19.0% | -11.2%
CCN(CC)CCNC(=O)CCc1ncc(-c2ccc(Cl)cc2)o1 | -21.3% | 3.2%
CCN(CC)c1ccc(S(=O)(=O)N(CC)CC)cc1[N+](=O)[O-] | 27.2% | 28.3%
Cc1ccccc1C(NC(C)c1ccccc1)c1ccccc1 (stereo unspecified) | 29.0% | 0.0%

Following part
SMILES | 2A Renilla | 2A firefly
COc1ccc(C)cc1NC(=O)N1CCN(C(=O)c2nsc3ccccc23)CC1 | -5.9% | -1.8%
CCc1cccc(NC(=O)C2CCCN(c3ncnc4onc(-c5ccc(F)cc5)c34)C2)c1 (stereo unspecified) | 8.9% | -0.3%
CC(C)(CNc1nc(-c2ccccc2)nc2ccccc12)N1CCOCC1 | 1.8% | 10.8%
COc1ccc(NC(=O)CSc2nnc(NC(=O)Nc3ccccc3)s2)cc1OC | -7.4% | 21.1%
Cc1ccc(C)c(NC(=O)Nc2csc3c2CCCC3)c1 | -6.1% | -23.9%
CN(Cc1ccccc1NC(=O)C1(C)CC1(Cl)Cl)C1CCCCC1 (stereo unspecified) | 6.5% | 1.6%
O=C(N/N=C/c1ccccc1)c1cccs1 | 22.3% | 193.8%[activator]
COc1cccc2c(=O)cc(CSCC(=O)Nc3cccc(Cl)c3)[nH]c12 | 7.3% | -6.2%
COc1ccc(-c2cc(COC(=O)Cc3cccc(F)c3)on2)cc1 | 16.8% | 0.0%
COc1ccc2c(c1)c(=O)c(S(=O)(=O)c1ccccc1)cn2CC(=O)Nc1ccc2c(c1)OCO2 | 42.7%[activator] | 16.4%
Cc1ccc(CCNC(=O)C2CCN(S(=O)(=O)c3ccc4c(ccn4C)c3)CC2)cc1 | -5.4% | -20.8%
Cc1ccc(C(=O)OCC(=O)Nc2cccc(N3CCCC3=O)c2)c(O)c1 | 12.5% | 72.1%[activator]

Next results follow:
SMILES | 2A Renilla | 2A firefly
CN(C)c1nc(SCC#N)nc(N2CCOCC2)n1 | 8.6% | 8.4%
Cc1ccc(-c2cc(C(=O)Nc3cc(C)n(C)n3)c3ccccc3n2)cc1 | u | u
NS(=O)(=O)c1ccc(N/N=C/c2ccsc2)c([N+](=O)[O-])c1 | -10.2% | 0.0%
O=C(Cc1ccc(S(=O)(=O)N2CCCCC2)cc1)NC1CC1 | -9.3% | -5.7%
O=C(NCCc1c[nH]c2ccc(Cl)cc12)c1ccc(F)cc1F | 4.2% | 5.4%
COc1cccc(Nc2nc3ccccc3nc2NS(=O)(=O)c2ccc(NC(C)=O)cc2)c1 | 26.3% | 28.0%
C=C(C)CN1CCCC(C(=O)NCC2CC2)C1 (stereo unspecified) | -3.0% | -1.8%
COCCNC(=O)c1cc(-c2ccc(OC)cc2)nc2ccccc12 | 14.2% | 77.2%[activator]
Cc1ccc2nc(C)cc(C(=O)OC(C)C(=O)NC(C)(C)C)c2c1 (stereo unspecified) | -8.5% | -4.6%
Cc1cnc2c(c1SCC(=O)NCc1ccc(F)cc1)c(=O)n(C)c(=O)n2C | 6.7%&-13.9% | 15.2%&-14.3%
Cc1cc(NC(=O)CN2CCN(C(=O)c3cccc(Cl)c3Cl)CC2)no1 | 9.6% | 1.8%
O=C1CN(Cc2ccc(F)c3cccnc23)CCN1 | -12.1% | -0.2%

(more compounds)
SMILES | 2A Renilla | 2A firefly
COc1ccc(CCNC(=O)CN(c2cc(Cl)ccc2C)S(=O)(=O)c2ccccc2)cc1 | 70.1%[activator] | u
CC(=O)c1ccc(N2CCN(C(=O)CCC(=O)Nc3ccc4nc(N5CCCCC5)cc(C)c4c3)CC2)cc1 | -18.2% | 24.9%
CC(=O)NC12CC3CC4C5CC(CC41)CC2C5C3 | 14.8% | 23.4%
O=C(NCc1cccc(F)c1)c1ccc(CN2CC(=O)N3CCCCC3C2=O)cc1 (stereo unspecified) | 18.1% | -2.6%
N#Cc1ccc(C(=O)NC2CCC3CCCCC3C2)cc1 (stereo unspecified) | 16.1% | 106.4%[activator]
CCn1cc(C(=O)NCCc2ccccc2)c(=O)c2cc(S(=O)(=O)N3CCCCCC3)ccc21 | -3.0% | 9.8%
OC(CC#CCN1CCN(CC#CCC(O)(c2ccccc2)c2ccccc2)CC1)(c1ccccc1)c1ccccc1 | 0.0% | 39.5%[activator]
N#Cc1cccc(C(=O)NCCCN2CCCC2)c1 | 3.7% | 3.8%
Cc1cccc(Nc2ncc(NC(=O)c3cccc(F)c3)c(Nc3cccc(C)c3)n2)c1 | -1.1% | -8.9%
CCc1ccccc1NC(=O)c1noc2c1CC(C(C)(C)C)CC2 (stereo unspecified) | -14.3% | -10.4%
Cc1c(Cl)cccc1-n1nc(C)c2c(C)cc(=O)n(CC(=O)N3CCCc4ccccc43)c21 | -2.3% | -8.2%
CC(=O)N1CCCc2cc(S(=O)(=O)N3CCC(C(=O)NCc4cccc(C)c4)CC3)ccc21 | -12.4% | -9.8%

The list goes on.
SMILES | 2A Renilla | 2A firefly
COc1cccc(N2CCN(c3nc4ccc(C(=O)c5ccccc5)cc4n4c(C)nnc34)CC2)c1 | -11.4% | -12.5%
FC(F)(F)c1cccc(CSc2nnc(-c3ccncc3)n2-c2ccc(Br)cc2)c1 | u | u
CCOc1ccc(CNC(=O)c2cc3n(n2)CC(C)(C(=O)NC2CCCC2)N(CC)C3=O)cc1OC (stereo unspecified) | 5.5% | 14.6%
CN(C)CCCN1C(c2ccccc2)=CC(=C(C#N)C#N)C2=C1CCCC2 | 3.5% | 4.2%
COc1cccc(Nc2nnc(-c3cc4ccc(O)cc4oc3=O)s2)c1 | -9.2% | 20.0%
CS(=O)(=O)c1ccccc1NC(=O)CNc1cc(Cl)ccc1N1CCOCC1 | 1.2% | -11.3%
CCOC(=O)c1oc2cc(OCC(N)=O)ccc2c(=O)c1-c1ccc(Br)cc1 | -13.5% | -2.0%
COc1cc(C2CC(=O)Nc3c(-c4ccccc4)nsc32)cc(OC)c1OC (stereo unspecified) | u | -28.7%
CC[C@@H]([C@H](C)O)n1ncn(-c2ccc(N3CCN(c4ccc(OC[C@@H]5CO[C@@](Cn6cncn6)(c6ccc(F)cc6F)C5)cc4)CC3)cc2)c1=O | -9.2% | u
C=C(C)COc1cc(C)cc2oc(=O)c(CC(=O)Nc3nc(CC(=O)O)cs3)c(C)c12 | -8.0% | 0.9%
Cc1ncc(COC(=O)C(C)C)c2cc(-c3nc(-c4ccccc4F)no3)c(=O)oc12 | 1.2% | 43.8%[activator]
Cc1cc(NC(=O)C2CCCCC2)ccc1Br | 21.8% | 158.8%[activator]

The listing continues:
SMILES | 2A Renilla | 2A firefly
CC(C)c1ccc(-c2nonc2NC(=O)c2cccs2)cc1 | 4.9% | u
Cc1ccccc1CNC(=O)CN1CCSc2ccccc21 | 17.6% | 99.9%[activator]
COC(=O)CN1C(=O)CSc2ccc(S(=O)(=O)Nc3ccc(Cl)cc3C)cc21 | 110.4%[activator] | -15.9%
CCC(C)NC(=O)c1ccccc1-c1ncc(-c2ccc(F)cc2)o1 (stereo unspecified) | 13.9% | 27.3%
CCOc1cccc(CNc2nn[nH]n2)c1OCc1ccccc1 | 0.0% | 28.7%
COc1cccc(NC(=O)C(Sc2nnc(-c3ccco3)o2)c2ccccc2)c1 (stereo unspecified) | 8.4% | 83.9%[activator]
Cc1ccccc1COC(=O)c1nn(-c2ccccc2)nc1N | 0.0% | 80.7%[activator]
CCC1CCCCN1C(=O)CSc1nnc(-c2ccc(OC)c(OC)c2)o1 (stereo unspecified) | -6.0% | -15.0%
COCCNC(=O)Cn1cc2c(n1)-c1c(oc(C(=O)N3CCCC3)c1C)CC2 | 7.7% | 0.4%
CCn1cc2nc(SCC(=O)Nc3ccc(OC)cc3OC)n(Cc3ccc(Cl)cc3)c(=O)c2n1 | 120.9%[activator] | -12.8%
N#Cc1ccc(CN2CCN(C(=O)C3CC=CCC3)CC2)cc1 (stereo unspecified) | 0.2% | 6.1%
CC1CCN(S(=O)(=O)c2ccc3c(c2)N(CC(=O)Nc2ccc(F)c(Cl)c2)C(=O)CO3)CC1 | -2.5% | -15.7%

(listing goes on)
SMILES | 2A Renilla | 2A firefly
Cc1ccc(/C=N/c2sc(C)c(C)c2C#N)cc1 | -2.3% | 8.7%
Cc1ccc2c(c1)N(C(=O)N1CCC(C(=O)NCc3ccccc3C)CC1)CC(C)O2 (stereo unspecified) | 8.6% | -18.7%
Cc1cc(N2CCCCCC2)n2nc(-c3ccccc3)nc2n1 | 3.1% | 19.9%
Cc1ccc2oc(C(=O)N(Cc3sccc3C)C3CCS(=O)(=O)C3)c(C)c2c1 (stereo unspecified) | 0.0% | 0.0%
